From PubChem
LASV entry inh: qHTS for Inhibitors of binding or entry into cells for Lassa Virus; Lassa virus pseudotype entry inhibition, cell reporter; control for the full effect not named in the record; Potency, µM (highest dose often 37.9 µM), for inactives: at the top dose activity change, negative = inhibition, hits mostly inhibitors; actives 1.2% (n = 300,000); active means well fitted inhibition curve with a large enough effect; inconclusive means small, poorly fitted or top-dose-only effect, or effect the other way; inactive means flat fitted curve, though single readings scatter; tested in HEK293 cells; further: on the % scale 0 is the no-effect control and ±100 the full control effect; nearly all actives have a fitted effect of over 50% in size; luciferase read-out
RE007 growth inh: qHTS Assay for Inhibitors of the HIV-1 protein Vpr; Potency, µM (series often up to 92.2 µM), for inactives: top-dose activity change, negative = less growth; S. pombe RE007 Vpr strain, BacTiter-Glo ATP luminescence, 24 h; control for the full effect not named in the record; actives 0.21% (n = 360,000); AID 651644, 2012; active = well fitted falling curve with a large enough effect; inconclusive = small, poorly fitted or top-dose-only effect; inactive = no such curve, though single readings can be large or run the other way;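 further: on the % scale 0 is the no-effect control and ±100 the full control effect; nearly all actives have a fitted effect of over 50% in size; the assay follows cell death caused by Vpr and the record does not say whether a fall means rescue or toxicity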
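Fission yeast strain RE007, carrying one chromosomally integrated HIV-1 vpr copy, was seeded at OD 0.01 in PMG+AL medium with 23 nL pinned compound. After 24 h at 30 °C and 99% humidity, viability was read by BacTiter-Glo luminescence.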
StopGo reporter: High Throughput Screening for Foot and Mouth Disease Virus Antivirals. human cells with a luciferase reporter of 2A StopGo recoding; control for the full effect not named in the record. Potency, µM (series often up to 57.9 µM), inactives show top-dose signal change, negative = less light. actives 1.2% (n = 410,000); active = well fitted falling curve with a large enough effect; inconclusive = small, poorly fitted or top-dose-only effect; inactive = no such curve, though single readings can be large or run the other way; tested in HEK293T cells; further: on the % scale 0 is the no-effect control and ±100 the full control effect; nearly all actives have a fitted effect of over 45% in size; luciferase light after 4 h
SARS PLpro yeast: qHTS of Yeast-based Assay for SARS-CoV PLP; S. cerevisiae expressing SARS-CoV PLpro, growth rescue; control for the full effect not named in the record; Potency, µM (doses to about 32.9 µM), for inactives: at the top dose activity, positive = growth rescue; actives 0.19% (n = 330,000); AID 485353, 2010; active means well fitted rising curve with a large enough effect; inconclusive means small, poorly fitted or top-dose-only effect; inactive means no such curve, though single readings can be large or run the other way; further: 0% is about no effect; nearly all actives have a fitted effect of over 55% in size; growth read by luminescence after 48 h
Cruzain Triton: qHTS Assay for Promiscuous and Specific Inhibitors of Cruzain (with detergent) | Cruzipain (Trypanosoma cruzi), P25779 | purified cruzain, Z-FR-AMC fluorescence, 0.01% Triton | Potency, µM, for the others: max response, negative = inhibition, most hits filed as inhibitors | actives 0.43% (n = 200,000);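 further: plate controls were neutral wells for no effect and buffer without enzyme for full effect; nearly all actives have a fitted effect of over 40% in size; top concentration of the series not given in the record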
Target sequence (P25779 123-467 limits assumed): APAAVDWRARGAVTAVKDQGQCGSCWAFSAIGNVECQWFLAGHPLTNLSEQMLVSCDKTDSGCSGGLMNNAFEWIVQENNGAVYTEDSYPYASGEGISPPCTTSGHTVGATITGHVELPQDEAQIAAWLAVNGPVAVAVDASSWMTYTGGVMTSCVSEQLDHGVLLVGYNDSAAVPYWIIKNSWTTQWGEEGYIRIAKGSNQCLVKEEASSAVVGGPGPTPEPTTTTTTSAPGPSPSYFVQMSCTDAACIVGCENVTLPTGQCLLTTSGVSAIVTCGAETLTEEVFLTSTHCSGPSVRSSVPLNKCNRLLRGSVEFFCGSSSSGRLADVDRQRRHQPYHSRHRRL
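Compounds were screened in titration against cruzain (1.5 nM) with 0.01% Triton X-100 to counter colloidal aggregation. Activity was the AMC fluorescence increase over 60 s after adding 2 uM Z-FR-AMC at pH 5.5.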
Cruzain noTriton: qHTS Assay for Promiscuous and Specific Inhibitors of Cruzain (without detergent); Cruzipain (Trypanosoma cruzi), P25779; purified cruzain, Z-FR-AMC fluorescence, no detergent; Potency, µM, inactives show max response, negative = inhibition, most hits filed as inhibitors; actives 2.3% (n = 200,000);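 further: plate controls were enzyme without inhibitor for no effect and buffer without enzyme for full effect; nearly all actives have a fitted effect of over 40% in size; top concentration of the series not given in the record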
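Detergent-free condition (0.00005% Triton X-100) in acetate buffer pH 5.5 with DTT. 1.5 nM enzyme and compound were pre-mixed 15 min, then 2 uM Z-FR-AMC substrate added; reaction progress from fluorescence change between first and third reads (60 s).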
NS1 function inh: qHTS Assay for Inhibitors of Influenza NS1 Protein Function; S. cerevisiae slowed by influenza A NS1, growth recovery by OD600; Potency, µM (series often up to 46.1 µM), for inactives: top-dose activity, positive = more growth; actives 0.4% (n = 270,000); AID 2326, 2010; active means well fitted rising curve with a large enough effect; inconclusive means small, poorly fitted or top-dose-only effect; inactive means no such curve, though single readings can be large or run the other way; further: nearly all actives have a fitted effect of over 50% in size
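A cell-based growth assay was used: compounds that relieve NS1-induced slow growth of budding yeast raise OD600. Assay medium was yeast nitrogen base with ammonium sulphate and -URA supplement, pH 6.0, with 2% galactose.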
Marburg entry inh: qHTS for inhibitors of binding or entry into cells for Marburg Virus | AID 540276, 2011 | Marburg virus pseudotyped entry inhibition, cell reporter; control for the full effect not named in the record; about a third of the inactives were read at about 46 µM | Potency, µM (titrated, usually from 37.8 µM), for inactives: at the highest dose activity change, negative = inhibition, most hits filed as inhibitors | actives 1.8% (n = 300,000); active = well fitted inhibition curve with a large enough effect; inconclusive = small, poorly fitted or top-dose-only effect, or effect the other way; inactive = flat fitted curve, though single readings scatter; tested in HEK293 cells; about a fifth of its hits are not listed in these tables; further: on the % scale 0 is the no-effect control and ±100 the full control effect; luciferase read-out
* = called active by the depositor; ? = inconclusive; . = no result given; & = joins results of further samples; [ ] = another dose, or the depositor's remark. Unless noted, the call rests on the fitted dose curve; in most records, active means well fitted curve in the direction sought with a large enough effect; inconclusive means small, poorly fitted or top-dose-only effect, or another doubt; inactive means no such curve, though single readings can be large; an effect the other way counts as inactive or inconclusive. Potency means the concentration at half of the fitted maximal effect.

canonical_smiles | LASV entry inh | RE007 growth inh | StopGo reporter | SARS PLpro yeast | Cruzain Triton | Cruzain noTriton | NS1 function inh | Marburg entry inh
CN1CCN(c2nc3c(c(=O)n(C)c(=O)n3C)n2CC(=O)C23CC4CC(CC(C4)C2)C3)CC1 | -19% | 1% | -3% | -2% | -0.8% | 3% | 16% | -18%
Nn1c(COc2ccccc2)nnc1SCc1cc(=O)[nH]c2ccccc12 | 2% | 13% | 18% | 1% | 5.1% | -10% | -19% | -1%
COc1ccc(C(C)=O)cc1COc1ccc(-n2cnnn2)cc1 | -4% | -10% | -10% | 5% | -11% | -20% | -53% | -13%
Cc1cc(NC(=O)COC(=O)c2c(C)nn(Cc3ccccc3Cl)c2C)no1 | 1% | 0% | ? | 10% | -0.5% | 4% | 1% | -6%
O=C(NCCCn1ccnc1)/C(=C\c1cccnc1)NC(=O)c1cccc(Br)c1 | 4% | -16% | 18% | -11% | -1.8% | -7% | 14% | 15%
c1ccc(-n2c(-c3ccco3)nnc2-c2ccco2)cc1 | -4% | -6% | -20% | -1% | 3.9% | 0% | 2% | -1%
NC(=O)Cn1cnc2c(nnn2-c2cccc(Cl)c2)c1=O | . | -1% | -26% | -1% | . | . | 6% | .
O=C(O)c1cc(NS(=O)(=O)c2ccc(N3CCOCC3)c([N+](=O)[O-])c2)cc(C(=O)O)c1 | 2% | -7% | -21% | 22% | -3.6% | -6% | 16% | -21%
CCOC(=O)C1C(=O)CC(C)(O)C(C(=O)OCC)C1c1cccc(OC(F)(F)C(F)F)c1 (stereo unspecified) | 5% | 1% | 5% | 0% | 2.6% | ? | ? | ?
CC(C)CCNC(=O)c1c(N)n(Cc2ccc3c(c2)OCO3)c2nc3ccccc3nc12 | -21% | -18% | -14% | -4% | 3.4% | ? | 3% | ?
Cc1ccc2nc(N3C(=O)C(O)=C(C(=O)c4cc5ccccc5o4)C3c3cccs3)sc2c1 (stereo unspecified) | ? | -2% | 34%[activator] | -8% | 16µM* | 9% | 0% | 3%
CCOc1ccccc1Nc1nnc(SCc2ccc(C(=O)OC)o2)s1 | -30% | -6% | -7% | -8% | -6.4% | 2% | -70% | -26%
CCOc1ccc(C(CC(=O)O)NC(=O)C(CC)c2ccccc2)cc1 (stereo unspecified) | 9%[46.1 µM] | 9% | -3% | -1% | . | . | 3% | 16%[46.1 µM]
O=C(CCCCn1c(=O)[nH]c2ccsc2c1=O)NCc1ccc2c(c1)OCO2 | . | -12% | -8% | -12% | 1.7% | -13% | 5% | .
CCOc1ccc2nc(SCC(=O)NCc3ccccc3)[nH]c2c1 | -22% | 7% | -12% | 5% | . | . | 11% | -5%
O=C(CSc1ncnc2c1oc1ccccc12)NCC1CCCO1 (stereo unspecified) | -3% | 3% | 4% | . | . | . | -5% | -5%
CC1CN(c2oc(-c3ccco3)nc2C#N)CC(C)O1 (stereo unspecified) | -14% | -12% | -23% | 4% | -7.5% | 5% | -2% | 4%
CCn1c(=O)c2cc(C(=O)NCCOC)sc2c2ccccc21 | 0%[46.1 µM] | 17% | -11% | -1% | . | . | 1% | 9%[46.1 µM]
Cc1ccc(-n2ncc3c(N4CCCCCC4)ncnc32)cc1 | ? | . | 20µM* | . | 0.3% | -14% | . | .
COc1ccc(NS(=O)(=O)c2ccc(NS(=O)(=O)c3cccc(C(=O)O)c3)cc2)cc1 | . | -7% | -1% | 2% | . | . | 4% | 8%[46.1 µM]
Cc1ccc(S(=O)(=O)N(CC(=O)Nc2ccc(C)c(Cl)c2)C(=O)N2CCN(C)CC2)cc1 | 4% | 1% | -12% | 13% | . | . | . | 14%
CCOc1ccc(C2c3c(-c4cc(C)ccc4O)n[nH]c3C(=O)N2Cc2cccnc2)cc1OCC (stereo unspecified) | ? | . | -18% | . | -6.2% | ? | . | ?
COc1ccc(N2CC(C(=O)N3CCN(c4ccccc4F)CC3)CC2=O)cc1 (stereo unspecified) | ? | 1% | -11% | -1% | . | . | -12% | -19%[46.1 µM]
O=C(/C=C/c1ccco1)Nc1cccc(NC(=O)/C=C/c2ccco2)n1 | 6% | 1% | 19% | -1% | -9.0% | -1% | 18% | ?
CCOc1ccc(-n2c(SCC(=O)NCc3ccco3)nnc2-c2c[nH]c3ccccc23)cc1 | . | 8% | -17% | 3% | -2.4% | 7% | 28% | .

In the list so far, 3 have a Cl atom:
canonical_smiles | LASV entry inh | RE007 growth inh | StopGo reporter | SARS PLpro yeast | Cruzain Triton | Cruzain noTriton | NS1 function inh | Marburg entry inh
Cc1cc(NC(=O)COC(=O)c2c(C)nn(Cc3ccccc3Cl)c2C)no1 | 1% | 0% | ? | 10% | -0.5% | 4% | 1% | -6%
NC(=O)Cn1cnc2c(nnn2-c2cccc(Cl)c2)c1=O | . | -1% | -26% | -1% | . | . | 6% | .
Cc1ccc(S(=O)(=O)N(CC(=O)Nc2ccc(C)c(Cl)c2)C(=O)N2CCN(C)CC2)cc1 | 4% | 1% | -12% | 13% | . | . | . | 14%

Three of the compounds above, with each value named:
> Nn1c(COc2ccccc2)nnc1SCc1cc(=O)[nH]c2ccccc12
  LASV entry inh: 2%
  RE007 growth inh: 13%
  StopGo reporter: 18%
  SARS PLpro yeast: 1%
  Cruzain Triton: 5.1%
  Cruzain noTriton: -10%
  NS1 function inh: -19%
  Marburg entry inh: -1%

> COc1ccc(C(C)=O)cc1COc1ccc(-n2cnnn2)cc1
  LASV entry inh: -4%
  RE007 growth inh: -10%
  StopGo reporter: -10%
  SARS PLpro yeast: 5%
  Cruzain Triton: -11%
  Cruzain noTriton: -20%
  NS1 function inh: -53%
  Marburg entry inh: -13%

> Cc1cc(NC(=O)COC(=O)c2c(C)nn(Cc3ccccc3Cl)c2C)no1
  LASV entry inh: 1%
  RE007 growth inh: 0%
  StopGo reporter: ?
  SARS PLpro yeast: 10%
  Cruzain Triton: -0.5%
  Cruzain noTriton: 4%
  NS1 function inh: 1%
  Marburg entry inh: -6%

The results go on:
canonical_smiles | LASV entry inh | RE007 growth inh | StopGo reporter | SARS PLpro yeast | Cruzain Triton | Cruzain noTriton | NS1 function inh | Marburg entry inh
CCCn1c2ccccc2c2cnn(CC(=O)N3CCN(C4CCCCC4)CC3)c(=O)c21 | . | -7% | -19% | -3% | . | . | -12% | .
COc1ccc(C(=O)NC2CCc3ccccc32)cc1OC1CCN(C(C)=O)CC1 (stereo unspecified) | -8% | 8% | -12% | -3% | . | . | 10% | -4%
CCN1C(=NCCN2CCOCC2)N[C@@H](c2ccccc2)C(C(=O)OC)=C1C | . | -6% | -16% | 3%&8% | . | . | -11%&-1% | .
CCOc1ccc(NC(=O)CCc2c(C)nn(-c3ccc(N4CCCC4)nn3)c2C)cc1 | 3%[46.1 µM] | . | 12% | . | -2.3% | -1% | . | .
CCOc1ccc(/C=C/c2nc(C#N)c(NC(C)CC)o2)cc1 (stereo unspecified) | 1%[46.1 µM] | . | 1% | . | -0.8% | 8% | . | 1%[46.1 µM]
Cc1nc(-c2nnc(SCC(=O)Nc3ccc(Cl)cc3)n2C)cs1 | 5% | 8% | 7% | -1% | . | . | 0% | 0%
CCN(CC)c1ccc(/C=N/N2CCN(Cc3ccc(Cl)cc3)CC2)c(O)c1 | . | 1% | -25% | 0% | . | . | -5% | .
O=C(CSc1nc(NS(=O)(=O)c2ccccc2)cc(=O)[nH]1)Nc1ccccc1Cl | . | 6% | 3% | -1% | . | . | 19% | -1%[46.1 µM]
Cc1noc(NS(=O)(=O)c2ccc(NC(=O)/C=C/c3ccc(C(C)C)cc3)cc2)c1C | ? | 8% | 0% | -2% | . | . | 22% | 0%[46.1 µM]
C=C(C)COc1ccc(-c2ncncc2-c2ccccc2)c(O)c1 | 0%[46.1 µM] | 4% | -4% | -1% | . | . | 2% | -2%[46.1 µM]
O=C(N/N=C/c1ccc([N+](=O)[O-])cc1)C(=O)N1CCCC1 | -1%[46.1 µM] | -22% | 21% | 0% | . | . | -1% | 18%[46.1 µM]
CCOc1ccc(CNC(=O)c2cnc3sc(N4CCOCC4)nn3c2=O)cc1OC | 3%[46.1 µM] | . | -9% | . | -5.8% | 30% | . | .
Cc1nc2ncccn2c1-c1csc(Nc2ccccc2)n1 | -12% | 17% | ? | 9% | -7.9% | -5% | -26% | ?
O=C(CSCC(=O)N1CCCc2ccccc21)Nc1nc(-c2ccccc2)cs1 | ? | -9% | -18% | -19% | 3.4% | ? | 20µM* | -30%
COc1cccc(O)c1CN1CCC(C(=O)Nc2ccc(-c3cccc(C)c3)cc2)CC1 | ? | -7% | ? | 2% | . | . | -12% | ?
CCC(C)(C)n1nnnc1C(c1ccc(O)cc1)N1CCc2ccccc2C1 (stereo unspecified) | 4% | -14% | 9% | 0% | . | . | 3% | 14%[46.1 µM]
CCCCCCCc1nc2nc(C)c(Br)c(=O)n2[nH]1 | . | -14% | -28% | -1% | . | . | 1% | .
O=C(CCC(=O)c1cccs1)Nc1ccc(N2CCCCC2)cc1 | ? | -19% | 12% | -3% | . | . | . | ?
CCOC(=O)N1CCN(C(=O)c2oc3ccc(S(=O)(=O)N4CCOCC4)cc3c2C)CC1 | 6% | 8% | -19% | -3% | 1.8% | ? | -6% | -12%&-12%
CC(NC(=O)Cn1c(=O)oc2cc(S(=O)(=O)N3CCCCCC3)ccc21)c1ccccc1 (stereo unspecified) | -21%[46.1 µM] | . | 2% | . | -4.4% | -18% | . | -10%[46.1 µM]
Nc1c(/C=C2/C=CC(=O)C(O)=C2)c(=O)nc2sc(CC(=O)N3CCCC3)nn12 | . | 7% | 2% | 1% | . | . | 26% | .
